Polio RdRp inh = inhibitors of poliovirus RNA polymerase binding and polymerization | P03300 | hit rate 0.66% among 150,000 | % elongation, % (compound at 16.7 µg/mL) | poliovirus polymerase elongation, fluorescence polarization; hits give low values; in the data active = % elongation below about 90%; also: some results filed as inactive read as strong as hits
Target sequence (P03300 1749-2209 limits assumed): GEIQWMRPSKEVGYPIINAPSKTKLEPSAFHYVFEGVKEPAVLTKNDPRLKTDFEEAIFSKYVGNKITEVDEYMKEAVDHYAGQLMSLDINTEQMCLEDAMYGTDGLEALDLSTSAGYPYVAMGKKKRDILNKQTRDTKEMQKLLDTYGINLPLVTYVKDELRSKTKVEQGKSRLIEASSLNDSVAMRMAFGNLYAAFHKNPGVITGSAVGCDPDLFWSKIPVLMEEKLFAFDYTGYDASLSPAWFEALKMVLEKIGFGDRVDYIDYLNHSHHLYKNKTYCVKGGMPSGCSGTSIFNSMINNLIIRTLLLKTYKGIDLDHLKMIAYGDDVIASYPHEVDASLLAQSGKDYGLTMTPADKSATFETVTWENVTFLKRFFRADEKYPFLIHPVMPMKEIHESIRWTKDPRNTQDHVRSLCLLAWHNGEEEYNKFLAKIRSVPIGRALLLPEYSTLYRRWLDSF
Polio RdRp inh intensity = second read-out of Polio RdRp inh, no call of its own (marks repeat the call); % elongation; measured here: total intensity read-out; formula for this scale not given here;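 total fluorescence in place of polarization; lower means less elongation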
Active calls of the source: *.

Under each structure – Polio RdRp inh	Polio RdRp inh intensity
> CCc1ccccc1NC(=O)N1CC(C)Sc2ccccc21 (stereo not given)
  107	102
> COc1ccc(NC(=O)c2ccc3c(c2)CCN3S(=O)(=O)c2ccccc2)cc1
  105	98
> COc1ccc(-c2nnc(SCC(=O)Nc3c(C)cccc3C)nc2-c2ccc(OC)cc2)cc1
  104	107
> COc1cc(OC)c(NC(=O)c2ccc3nc(C(C)C)oc3c2)cc1Cl
  112	105
> Cc1ccc(-c2noc(-c3nnn(-c4cccc(C(F)(F)F)c4)c3N)n2)cc1
  112	113
> COc1ccccc1Nc1ncc2c(n1)CCN(Cc1ccc(C)s1)C2
  105	106
> Cc1ccc2oc(C(=O)N(Cc3ccccc3F)C3CCS(=O)(=O)C3)c(C)c2c1 (stereo not given)
  100	106
> Cc1ccccc1CNC(=O)Cc1csc2ccccc12
  108	98
> Cc1ccccc1-c1nc2c(c(SCc3cccc(Cl)c3)n1)Cc1c(CO)cnc(C)c1O2
  105	109
> CCOC(=O)N1CCc2c(sc3c2c(=O)n(-c2ccccc2)c(=O)n3CC(=O)Nc2ccc(OC)cc2OC)C1
  110	110

Continued.
Under each structure – Polio RdRp inh	Polio RdRp inh intensity
> COc1ccccc1C(=O)Nc1ccccc1SCc1cc(=O)c2ccccc2[nH]1
  82	131
> Cc1c(C(=O)Nc2cccc(C(F)(F)F)c2)sc2nc3n(c(=O)c12)CCCC3
  109	115
> Cc1ccccc1-c1noc(-c2ccc(N3CCCC3)c([N+](=O)[O-])c2)n1
  117	120
> Cc1cc(C)cc(-n2ccnc(NCCc3ccccc3)c2=O)c1
  112	118
> Cc1ccc(Cl)c2sc(NC(=O)c3ccc(S(=O)(=O)N4CCCC4)cc3)nc12
  97	121
> O=C(Nc1ccc(C(=O)OCc2cc(=O)n3c4c(sc3n2)CCCC4)cc1)c1ccc(F)cc1
  108	115
> CC1CCc2c(sc3nnn(CC(=O)Nc4cccc(C(F)(F)F)c4)c(=O)c23)C1 (stereo not given)
  101	103
> Cc1cccc(-n2cc(-c3ccccc3)nc2SCC(=O)Nc2ccccc2Cl)c1
  99	98
> COc1ccccc1C(=O)c1c(N)c(-c2nc(-c3ccccc3)cs2)c2ccccn12
  111	112
> CCC(=O)N1CCc2cc(Br)cc(S(=O)(=O)NCCc3ccccc3)c21
  104	109

Later entries:
Under each structure – Polio RdRp inh	Polio RdRp inh intensity
> COC(=O)c1ccc(Cn2c(SCc3ccccc3F)nc3ccncc32)cc1
  106	107
> COc1ccc(C(=O)Nc2ccc(Cl)cc2C(=O)c2ccccc2)c(OC)c1
  98	100
> CC1CCCCN1S(=O)(=O)c1ccc(F)c(C(=O)Nc2ccccc2C(F)(F)F)c1 (stereo not given)
  105	105
> Cc1nc(SCC(=O)N2CCN(c3ccccc3)CC2)[nH]c(=O)c1C
  111	110
> Cc1cccc(-n2c(C)nc3cc(C(=O)NC4CCCCCC4)ccc32)c1
  104	108
> Cc1ccc(C)c(N(C)S(=O)(=O)c2ccc3[nH]cc(C(=O)NC4CCCC4)c(=O)c3c2)c1
  110	111
> CC1CCN(C(=O)Cn2cc(SCC(=O)NCc3ccccc3Cl)c3ccccc32)CC1
  118	112
> Cc1nn(CC(=O)Nc2ccccc2F)c(=O)c2c(C)n(-c3ccc(Cl)cc3)nc12
  103	109
> Cc1ccc(Cl)cc1NC(=O)C1CCC(CNS(=O)(=O)c2cccc3nsnc23)CC1 (stereo not given)
  107	110
> COc1ccc(/C=C\C(=O)NC2CC(=O)N(c3ccc(F)cc3)C2)cc1OC (stereo not given)
  105	107

Further records.
Under each structure – Polio RdRp inh	Polio RdRp inh intensity
> CCc1ccc(NS(=O)(=O)c2[nH]ncc2C(=O)OC)cc1
  101	104
> COc1ccc(/C=C(\C#N)c2nc(-c3cc(Cl)ccc3OC)cs2)cc1
  101	105
> CCOc1ccc(C(=O)c2oc3ccccc3c2NC(=O)c2cc(=O)c3ccc(C)cc3o2)cc1
  111	99
> Cc1ccc(Cn2c(=O)n(Cc3ccccc3)c(=O)c3oc4ccccc4c32)cc1
  101	99
> CCCc1cnc2c(c1SCC(=O)N1CCC(C)CC1)c(=O)n(C)c(=O)n2C
  107	113
> CCOC(=O)c1ccc(NC(=O)Cc2noc3ccc(C)cc23)cc1
  107	109
> O=S(=O)(NCC(c1ccccc1)N1CCc2ccccc21)c1ccccc1 (stereo not given)
  105	107
> CCOc1ccc(N(c2nc(-c3ccc(OC)c(OC)c3)no2)c2nc(-c3ccc(OC)c(OC)c3)no2)cc1
  104	105
> COc1cccc(NC(=O)CCc2nc(-c3cc(OC)c(OC)c(OC)c3)no2)c1
  103	98
> CC(C)CCNC(=O)c1cnc2sc(N3CCCCC3)nn2c1=O
  109	110

(further entries)
Under each structure – Polio RdRp inh	Polio RdRp inh intensity
> CC(C)c1ccc(Nc2c(-c3ccc(N4CCOCC4)cc3)nc3ncccn23)cc1
  106	105
> COc1ccc(F)cc1S(=O)(=O)Nc1cccc(-c2ccc(N3CCCCCC3)nn2)c1
  110	109
> CC1CCc2c(sc3nnn(Cc4cccc(C(=O)OC(C)C)c4)c(=O)c23)C1 (stereo not given)
  111	114
> CC(C)(C)OC(=O)N1CCC(c2c(C(=O)NCc3ccccc3)cnn2-c2ccc(F)cc2)CC1
  113	106
> NC(=O)C1CCN(c2ncnc3c2cnn3-c2cccc(Cl)c2)CC1
  106	116
> COc1ccc(NC(=O)CN(C)S(=O)(=O)c2cccc3nsnc23)cc1
  111	112
> O=C(NCc1ccccc1)c1cc(-c2cccc(Cl)c2)on1
  107	109
> CCOC(=O)c1noc2ncnc(Nc3cccc(C(F)(F)F)c3)c12
  108	103
> Cc1ccc(OCc2cc(=O)n3c4c(sc3n2)CCCC4)cc1C
  106	109
> CCOC(=O)c1cnc2cc(Cl)c(OC)cc2c1Nc1ccc(Br)cc1C
  99	101

Carrying on.
Under each structure – Polio RdRp inh	Polio RdRp inh intensity
> CN(C)CCCNc1oc(/C=C/c2ccc(F)cc2)nc1C#N
  116	109
> COc1ccc(-c2ccnc3[nH]n(-c4ccccc4)c(=O)c23)cc1
  105	104
> COC(=O)CSc1ncc2c(n1)-c1ccccc1N(Cc1cccc(F)c1)S2(=O)=O
  114	120
> Cc1ccc(CNC(=O)c2cc3ccc4cccnc4c3[nH]2)cc1
  110	108
> Cc1ccc(-c2cc(C(=O)NCc3cnn(C)c3C)c3cc(Br)ccc3n2)cc1
  104	108
> CCCCOc1ccc(C(=O)NCCc2sc(-c3cccc(F)c3)nc2C)cc1
  104	108
> CCN1CCN(c2oc(/C=C/c3ccccc3OC)nc2C#N)CC1
  112	110
> CCS(=O)(=O)N1CCc2cc(C(=O)Nc3ccc(C)c(Cl)c3)ccc21
  113	115
> O=c1ccc2cc(S(=O)(=O)NCc3ccc(Br)cc3)ccc2[nH]1
  104	107
> CCOc1ccccc1NC(=O)CSc1nc2ccccc2nc1Cc1ccc(C)cc1
  106	112

Next results.
Under each structure – Polio RdRp inh	Polio RdRp inh intensity
> COc1cc(-c2nc(SCC(=O)Nc3ccc4c(c3)OCO4)c(-c3ccccc3)[nH]2)cc(OC)c1OC
  112	112
> CCOC(=O)c1ccccc1NC(=O)CSc1nc2ncccc2o1
  106	108
> Cc1ccc2nc(NC(=O)CSc3nccn3Cc3ccc(Cl)cc3)sc2c1
  111	111
> Cc1ccc(Cl)cc1NC(=O)CSc1nc(C)c(C)c(C)c1C#N
  101	103
> COc1cccc(CN(C(=O)c2oc3ccc(Br)cc3c2C)C2CCS(=O)(=O)C2)c1 (stereo not given)
  103	106
> CCOc1ccc(CCNC(=O)Cn2nnc(-c3ccccc3)n2)cc1OCC
  104	103
> CCOc1ccc(-c2c(C)nn3c(C)c(C(=O)NCCN(C)C)cnc23)cc1OCC
  100	97
> COc1ccccc1Cn1ccn(CC(=O)Nc2c(C)cc(C)cc2C)c(=O)c1=O
  108	111
> CSc1cccc(NC(=O)CN2C(=O)CCc3cc(S(=O)(=O)N4CCCCC4)ccc32)c1
  107	110
> Cc1cc(C)c(NC(=O)CN(C)S(=O)(=O)c2ccc3c(c2)c(=O)n(C)c(=O)n3C)c(C)c1
  101	104

A draw from above in order of molecular weight, low to high.
Under each structure – Polio RdRp inh	Polio RdRp inh intensity
> O=C(NCc1ccccc1)c1cc(-c2cccc(Cl)c2)on1
  107	109
> CN(C)CCCNc1oc(/C=C/c2ccc(F)cc2)nc1C#N
  116	109
> Cc1ccc(CNC(=O)c2cc3ccc4cccnc4c3[nH]2)cc1
  110	108
> COc1ccc(-c2ccnc3[nH]n(-c4ccccc4)c(=O)c23)cc1
  105	104
> CCN1CCN(c2oc(/C=C/c3ccccc3OC)nc2C#N)CC1
  112	110
> Cc1ccc(OCc2cc(=O)n3c4c(sc3n2)CCCC4)cc1C
  106	109
> CCOC(=O)c1noc2ncnc(Nc3cccc(C(F)(F)F)c3)c12
  108	103
> CCOC(=O)c1ccccc1NC(=O)CSc1nc2ncccc2o1
  106	108
> Cc1ccc(Cl)cc1NC(=O)CSc1nc(C)c(C)c(C)c1C#N
  101	103
> CCS(=O)(=O)N1CCc2cc(C(=O)Nc3ccc(C)c(Cl)c3)ccc21
  113	115
> COc1ccc(NC(=O)CN(C)S(=O)(=O)c2cccc3nsnc23)cc1
  111	112
> O=c1ccc2cc(S(=O)(=O)NCc3ccc(Br)cc3)ccc2[nH]1
  104	107
> CCOc1ccc(CCNC(=O)Cn2nnc(-c3ccccc3)n2)cc1OCC
  104	103
> COc1ccccc1Cn1ccn(CC(=O)Nc2c(C)cc(C)cc2C)c(=O)c1=O
  108	111
> CCCCOc1ccc(C(=O)NCCc2sc(-c3cccc(F)c3)nc2C)cc1
  104	108
> CCOc1ccccc1NC(=O)CSc1nc2ccccc2nc1Cc1ccc(C)cc1
  106	112
> COC(=O)CSc1ncc2c(n1)-c1ccccc1N(Cc1cccc(F)c1)S2(=O)=O
  114	120
> CCOC(=O)c1cnc2cc(Cl)c(OC)cc2c1Nc1ccc(Br)cc1C
  99	101
> Cc1cc(C)c(NC(=O)CN(C)S(=O)(=O)c2ccc3c(c2)c(=O)n(C)c(=O)n3C)c(C)c1
  101	104
> CSc1cccc(NC(=O)CN2C(=O)CCc3cc(S(=O)(=O)N4CCCCC4)ccc32)c1
  107	110
> COc1cccc(CN(C(=O)c2oc3ccc(Br)cc3c2C)C2CCS(=O)(=O)C2)c1 (stereo not given)
  103	106
> COc1cc(-c2nc(SCC(=O)Nc3ccc4c(c3)OCO4)c(-c3ccccc3)[nH]2)cc(OC)c1OC
  112	112

New compounds follow:
Under each structure – Polio RdRp inh	Polio RdRp inh intensity
> O=C(C1CCC(CNS(=O)(=O)c2ccc(Br)s2)CC1)N1CCN(c2ccccc2)CC1 (stereo not given)
  106	106
> COc1ccc(S(=O)(=O)N2CCC(N3CCN(Cc4ccccc4)C(=O)C3=O)CC2)cc1
  102	109
> COc1cc(NC(=O)C2CCN(S(=O)(=O)Cc3ccccc3)CC2)c(OC)cc1Cl
  108	114
> CCOC(=O)c1c(NC(=O)COc2ccc(Cl)cc2C)sc2c1CCCCC2
  104	105
> Cc1nnc2c(N3CCN(c4ccccc4F)CC3)nc3ccc(C(=O)c4ccccc4)cc3n12
  108	100
> COc1ccc(CCNC(=O)c2cnc3ccc(C)cn3c2=O)cc1
  109	111
> Cc1nc2sccn2c(=O)c1S(=O)(=O)NCc1ccc(F)cc1
  112	105
> Cc1ccc(C)c(NC(=O)C(=O)NCCc2csc(-c3cccc(F)c3)n2)c1
  102	105
> Cc1c2cnn(CC(=O)Nc3cccc(C(F)(F)F)c3)c(=O)c2c(C)n1Cc1ccccc1Cl
  103	106
> COc1ccc(S(=O)(=O)Nc2cccc(-c3ccc(N4CCCCCC4)nn3)c2)c(OC)c1
  107	104

Other structures follow:
Under each structure – Polio RdRp inh	Polio RdRp inh intensity
> CC(C)CCOc1ccc(C2N=C(N)Nc3nc4ccccc4n32)cc1 (stereo not given)
  101	97
> CN1CCSc2ccc(C(=O)NCc3ccccc3)cc21
  106	107
> CN(C)CCN(Cc1ccco1)C(=O)c1oc2ccccc2c1NC(=O)c1cccc(F)c1
  113	104
> CCOc1ccc(-c2c(C)nn3c(C)c(C(=O)NCc4ccc(C)o4)cnc23)cc1OCC
  106	111
> Cc1cccc(N(C)S(=O)(=O)c2c(C(=O)N3CCCCCC3)c(C)n(C)c2C)c1
  105	111
> CCCN1C(C(=O)c2ccccc2)=C(OC(=O)c2ccc(C)cc2)c2ccccc2S1(=O)=O
  109	111
> CCCOC1(C(F)(F)F)NC(=O)N(c2cccc(Cl)c2)C1=O (stereo not given)
  102	102

Screens: PubChem BioAssay, ICCB-Longwood Screening Facility, Harvard Medical School

A portion of the library; count on the stated rates, not on these rows.
